# High-throughput results as filed in PubChem BioAssay.
# MT1-MMP promoter – MT1-MMP gene expression reporter suppression – cell-based, luciferase reporter, luminescence (AID 618); MT1-MMP promoter luciferase reporter cells, luminescence; calls from a first round at 10 µM; hits with a dose series show EC50 in µM; 0.62% of 87,000 active;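 active means over half of the reporter light lost at 10 µM or EC50 under 50 µM; inactive means the rest and hits that failed the dose series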;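 further: actives suppress MT1-MMP promoter-driven transcription so potencies describe inhibitors; HT1080 fibrosarcoma cells; overnight exposure; toxic or luciferase-blocking compounds were not removed from the actives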
# Hsc70 – small molecules displacing fluorescent ligand from Hsc70 – biochemical, fluorescence polarization, primary screen (AID 568). 83,000 tested, under 10 active. one-dose displacement, % at 20 µM; IC50 in µM for titrated hits. Hsc70 fluorescence polarization, probe displacement; higher % means a stronger effect; strong numbers were not always called active;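 active means displacement above 50% without optical interference and an IC50 on retest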;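 further: ATPase domain with a fluorescein-tagged ATP probe; 0% = vehicle and 100% = excess ADP; read after one hour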
# WNV protease inh – WNV NS2B-NS3 proteinase inhibition | WNV NS2B-NS3 protease, fluorogenic substrate Ex360/Em465; active compounds read low | z-score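 (tested at a level between 10 and 100 µM)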 | 0.18% of 65,000 active | AID 577;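 active means z-score at -3 or under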;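 further: score is relative to mean and spread of the compound wells of a plate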
# Target sequence (P06935 1371-1501 limits assumed): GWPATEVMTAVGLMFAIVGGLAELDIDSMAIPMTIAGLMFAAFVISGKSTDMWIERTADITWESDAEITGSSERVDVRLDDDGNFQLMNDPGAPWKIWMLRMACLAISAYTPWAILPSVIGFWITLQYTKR
# Target sequence (P06935 1502-1679 limits assumed): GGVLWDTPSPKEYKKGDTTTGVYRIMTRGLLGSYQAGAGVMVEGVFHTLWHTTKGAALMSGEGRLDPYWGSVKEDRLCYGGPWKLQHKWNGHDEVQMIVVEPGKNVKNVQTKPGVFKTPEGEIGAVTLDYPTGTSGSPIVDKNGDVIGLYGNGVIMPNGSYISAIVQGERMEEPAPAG
# Active calls of the source: *; i = inactive; nt = no result given.
SMILES,MT1-MMP promoter,Hsc70,WNV protease inh
C/C(CC1(O)/C(=N/O)CCc2nonc21)=N\O (stereo not given),i,1.5%,-0.33
CC1=C(C(=O)Nc2ccc(C)cc2)C(c2ccco2)NC(=O)N1 (stereo not given),i,2.4%,nt
CS(=O)(=O)N(CC(=O)N1CCN(c2ccccc2F)CC1)C1CCCCC1,i,-1.7%,nt
COC(=O)C1=C(C(=O)c2ccccc2)C(c2ccc(OC)c(OC)c2)Nc2nnnn21 (stereo not given),i,-0.7%,0.74
c1ccc2nc3[nH]cnc3nc2c1,i,9.9%,1.48
COC(=O)Cn1cnc2c1c(=O)n(C)c(=O)n2C,i,-2.3%,nt
Cc1nn(-c2ccccc2)c(Cl)c1C1C(C#N)=C(N)OC2=C1C(=O)CCC2 (stereo not given),i,-0.1%,-0.78
CCOC(=O)c1c(NC(=O)CCC(=O)N2CCOCC2)sc2c1CC(C)(C)OC2,i,2.3%,nt
COC(=O)C(NC(=O)C(NC(=O)c1ccccc1)C(C)C)C(C)C (stereo not given),i,-7.7%,-0.63
COC(=O)c1cc(Br)c(=O)n(CCN2CCCCC2)c1,i,5.3%,-0.28
CCN(CC)C(=O)CN(c1ccc(F)c(Cl)c1)S(C)(=O)=O,i,5.9%,0.11
Cc1cnc(C(=O)Nc2ccccc2F)cn1,i,-0.3%,nt
CCOC(=O)N1CCN(CC(O)COCc2ccccc2)CC1 (stereo not given),i,7.4%,nt
Cc1ccc(S(=O)(=O)N2CCOCC2)c2nsnc12,i,2.2%,nt
CCCOc1ccc(C(CC(=O)O)NC(=O)c2cccs2)cc1 (stereo not given),i,2.4%,nt

# Complete entries as entered above. Values in the order: MT1-MMP promoter, Hsc70, WNV protease inh
# `C/C(CC1(O)/C(=N/O)CCc2nonc21)=N\O` (stereo not given) across the screens: i, 1.5%, -0.33
# `COC(=O)C(NC(=O)C(NC(=O)c1ccccc1)C(C)C)C(C)C` (stereo not given) across the screens: i, -7.7%, -0.63

# New compounds follow:
SMILES,MT1-MMP promoter,Hsc70,WNV protease inh
CSc1ccc2[nH]c(=O)cc(C)c2c1,i,4.6%,0.01
COc1cc(CNC2CCCCCC2)cc(OC)c1O,i,0.9%,-0.49
Cc1nc2oc3c(NCc4ccccn4)ncnc3c2c2c1COC(C)(C)C2,i,5.2%,-0.91
CCOC(=O)N1CCN(C(=O)CN(C)S(=O)(=O)c2ccc(OC)c(OC)c2)CC1,i,1.7%,-0.95
CCOc1ccc2[nH]c(=O)c(CN(CCN3CCOCC3)Cc3nnnn3C(C)(C)CC)cc2c1,i,0.9%,0.16
CCOc1ccc(N(CC)S(=O)(=O)c2ccc3c(c2)oc(=O)n3C)cc1,i,-5.6%,0.33
COc1ccc(CNC(=O)c2c(C)nc3ccccn23)cc1,i,4.5%,nt
O=S(=O)(c1ccccc1)N1CCN(c2ncnc3sc(-c4ccccc4)cc23)CC1,i,0.2%,0.6
Cc1nc2c([nH]1)C1(CCN(Cc3ccccc3)CC1)C(C#N)=C(N)O2,i,0.5%,0.1
CCC(=O)Nc1ccc(F)c(Cl)c1,i,-3.9%,-0.3
O=C(NCc1ccco1)c1n[nH]c(=O)c2ccccc12,i,4.5%,nt
O=C(NCCc1ccccc1)c1nc2c(nnn2Cc2ccccc2Cl)c(=O)[nH]1,i,2.7%,0.74
O=C(COC(=O)CCC(=O)c1cccs1)NCc1ccco1,i,7.2%,-0.29
COc1ccc(CCCc2nnc(SCC(=O)Nc3nccs3)n2C)cc1C,i,2.3%,-0.12
CCN(CC)c1cc(Oc2ccccc2)ncn1,i,-0.3%,-0.21

# Grouped by structure: those above containing a furan ring, fused or not
SMILES,MT1-MMP promoter,Hsc70,WNV protease inh
CC1=C(C(=O)Nc2ccc(C)cc2)C(c2ccco2)NC(=O)N1 (stereo not given),i,2.4%,nt
Cc1nc2oc3c(NCc4ccccn4)ncnc3c2c2c1COC(C)(C)C2,i,5.2%,-0.91
O=C(NCc1ccco1)c1n[nH]c(=O)c2ccccc12,i,4.5%,nt
O=C(COC(=O)CCC(=O)c1cccs1)NCc1ccco1,i,7.2%,-0.29

# (list continues)
SMILES,MT1-MMP promoter,Hsc70,WNV protease inh
CCOC(=O)N1CCC(N2Cc3cccc(C(=O)Nc4cc(F)ccc4F)c3C2=O)CC1,i,4.4%,0.77
COc1cccc(C(C(=O)NC2CCCCC2)N(CC2CCCO2)C(=O)CNC(=O)c2ccco2)c1 (stereo not given),i,-2.1%,nt
C=CCn1c(SCC(=O)Nc2ccc3c(c2)CCC3)nnc1-c1cccs1,i,-7.0%,-0.59
NC(=O)C1CCN(C2CC(=O)N(Cc3ccc(N4CCCC4=O)cc3)C2=O)CC1 (stereo not given),i,-30.3%,nt
COC(=O)c1ccc(NC(=O)CSc2nc3ccccc3c(=O)[nH]2)cc1,i,1.1%,nt
CCOC(=O)C1=C(N)Oc2c(oc(CO)cc2=O)C1c1ccc(F)cc1 (stereo not given),i,-3.4%,nt
C[C@H](C(=O)C=[N+]=[N-])N1C(=O)c2ccccc2C1=O,i,2.9%,-0.74
Cc1ccc(N(CC(=O)Nc2ccc(C)cn2)S(=O)(=O)c2c(C)nn(C)c2C)cc1,i,-2.7%,-0.09
Cc1c(NC(=O)CN2C(=O)c3ccccc3S2(=O)=O)c(=O)n(-c2ccccc2)n1C,i,-2.6%,1.23
Cn1c(N)c(C(=O)COC(=O)C23CC4CC(CC(C4)C2)C3)c(=O)n(C)c1=O,i,2.5%,nt
NS(=O)(=O)c1ccc(S(=O)(=O)N(Cc2ccccc2F)CC2CCCO2)cc1 (stereo not given),i,-5.6%,0.03
CCOC(=O)CC1C(=O)NCCN1C(=O)c1ccc(F)cc1F (stereo not given),i,6.8%,nt
CCN(CC)S(=O)(=O)c1ccc2oc(C(=O)Nc3ccc(OC)cc3OC)c(C)c2c1,i,1.2%,-0.53
COC(=O)C1=C(C)NC2=C(C(=O)CCC2)C1c1cccc(C)n1 (stereo not given),i,-0.6%,1.55
O=C(NC1CCCCC1)C1c2ccccc2C(=O)N1Cc1ccco1 (stereo not given),i,-0.1%,0.91
Cc1ccc(C(C#N)c2ccc(C(=O)c3ccc(F)cc3)cc2)cc1 (stereo not given),i,0.8%,nt
CC(C)(O)/C=C1/Oc2ccccc2C1N1CCCCC1 (stereo not given),i,-3.0%,0.5
O=C(O)/C(=C1\OC(=O)c2ccccc21)c1ccccc1,i,0.3%,nt
CCOc1cc(S(=O)(=O)NC2CC2)c(OCC)cc1-n1cnnn1,i,7.0%,nt
C/C=C/CSc1nc2c(c(=O)[nH]c(=O)n2C)n1CCC,i,-5.6%,0.2
CCc1ccc(NC(=O)CSC2=C(C#N)C(c3ccc4c(c3)OCO4)CC(=O)N2)cc1 (stereo not given),i,-2.5%,0.54
Cc1cc(C)c(C#N)c(N2CCCC2)n1,i,-0.3%,-0.54
N=c1sccn1CC(=O)Nc1cccc2ccccc12,i,0.2%,nt
CCn1c(SC(C)C(=O)NC2CCCc3ccccc32)nnc1-c1cccs1 (stereo not given),i,-3.2%,nt
CCCCN(C)C(=O)c1c[nH]c2ccc(S(=O)(=O)N3CCOCC3)cc2c1=O,i,-1.3%,-0.44
COc1ccccc1N1CCN(C(=O)CSc2nc(-c3ccco3)cc(C(F)(F)F)n2)CC1,i,-9.7%,-1.57
COc1cc(C2=NOC(C(=O)N3CCCc4ccccc43)C2)cc(OC)c1OC (stereo not given),i,-3.3%,-0.19
Clc1ccc(Nc2nc3ccccc3n3nnnc23)cc1,i,-2.8%,nt
COc1ccc(NC2C=CS(=O)(=O)C2)cc1 (stereo not given),i,1.4%,nt
Cc1cc(NC(=O)CCC(=O)N(CCc2ccccc2)C(C(=O)NC2CCCC2)c2ccco2)no1 (stereo not given),i,3.2%,-0.01
CCCCN(C)C(=O)CCCc1c[nH]c2ccccc12,i,-4.0%,nt
Cc1ccc2cc3c(NC(=O)c4ccco4)nn(CC(C)C)c3nc2c1,i,-5.1%,1.07
Cc1nc2scc(-c3cccs3)c2c(=O)o1,i,-7.7%,-0.14
O=C(CC(C(=O)O)C1CCCO1)NCCc1ccc2c(c1)OCO2 (stereo not given),i,-0.6%,1.95
CCCOC(=O)/C(C)=N\NC(=O)c1ccco1,i,5.5%,nt
COc1ccc(C2=NCN(c3ccc(C)cc3)C(=S)N2)cc1,i,3.0%,nt
COc1ccc(CNC(=O)NC2CCCCC2)cc1,i,3.4%,2.69
CCOc1ccc(C(=O)NCC(=O)OC(C)C(=O)NCc2ccco2)cc1OCC (stereo not given),i,3.3%,1.01
COc1ccccc1-n1cnc2cc(NC(C)=O)ccc21,i,-1.1%,0.74
Cc1c(C)[n+](=O)c2c(n1[O-])CCCCC2,i,1.4%,-0.31
Cc1ccc(Cl)c(OCC(=O)Nc2ccc3c(c2)OCCO3)c1,i,1.0%,1.55
C=CCOC(=O)COc1ccc2c(C)c(C)c(=O)oc2c1,i,5.3%,-0.35
CC(Oc1ccccc1)C(=O)N1CCCc2ccccc21 (stereo not given),i,0.1%,-1.02
O=C(Nc1ccc2c(c1)OCO2)C1CC(c2ccccc2Cl)=NO1 (stereo not given),i,-1.3%,-0.45
CCOC(=O)Cc1nnc(NC(=O)c2ncn[nH]2)s1,i,4.2%,1.79
CCc1c(O)nc(SCC(N)=O)n(-c2ccccc2F)c1=O,i,-0.3%,-0.48
N=c1c(C(=O)NCc2ccccc2)cc2c(=O)n3ccccc3nc2n1Cc1ccco1,i,6.5%,0.15
Cc1ccc(-n2ncc3c(=O)n(CC(=O)N4CCCCCC4)cnc32)cc1,i,-7.8%,-0.64
CC(C)CC(=O)Nc1nnn(C)n1,i,-1.1%,-0.8
COc1ccccc1N/C(N)=N/c1nc(CSc2ccc(C)cc2)cc(=O)[nH]1,i,1.7%,-1.42
CCCNC(=O)c1c[nH]c2ccc(S(=O)(=O)N(C)c3ccc(OCC)cc3)cc2c1=O,i,-2.4%,-0.12
CCCN(CCC)CCCNC(=O)CC1Nc2ccccc2NC1=O (stereo not given),i,-6.1%,0.22
Cc1ccc(CSCC(=O)N2CCN(Cc3ccc4c(c3)OCO4)CC2)cc1,i,1.5%,nt
CC(=O)NC1=NN(C(C)=O)C(c2cccs2)S1 (stereo not given),i,3.9%,nt
Cn1nnc2cc(C(=O)NCCC3=CCCCC3)ccc21,i,-4.1%,0.16
Cc1ccc(C(=O)Nc2nc(=O)n(C(=O)c3ccccc3Cl)s2)cc1,i,-0.3%,nt
CC(C)CC(=O)N(c1ccc(F)cc1)C1C=CS(=O)(=O)C1 (stereo not given),i,4.2%,0.62
CCc1cccc2c(C#N)cn(CC(=O)NCCOC)c12,i,-2.9%,0.77
Cc1cccc2c(=O)cc(C)n(CC(=O)N3CCCCC3)c12,i,4.8%,-0.65
CCCC(=O)Nc1nnc(CC(=O)N2CCCC2)s1,i,4.0%,0.07

# 6 entries from above, bar-delimited:
compound | MT1-MMP promoter | Hsc70 | WNV protease inh
CC(C)CC(=O)Nc1nnn(C)n1 | i | -1.1% | -0.8
CCCNC(=O)c1c[nH]c2ccc(S(=O)(=O)N(C)c3ccc(OCC)cc3)cc2c1=O | i | -2.4% | -0.12
COc1ccccc1N/C(N)=N/c1nc(CSc2ccc(C)cc2)cc(=O)[nH]1 | i | 1.7% | -1.42
CC(=O)NC1=NN(C(C)=O)C(c2cccs2)S1 (stereo not given) | i | 3.9% | nt
CC(C)CC(=O)N(c1ccc(F)cc1)C1C=CS(=O)(=O)C1 (stereo not given) | i | 4.2% | 0.62
CCCC(=O)Nc1nnc(CC(=O)N2CCCC2)s1 | i | 4.0% | 0.07

# Continuation:
SMILES,MT1-MMP promoter,Hsc70,WNV protease inh
Cc1ccc(S(=O)(=O)NC2=NCN(CCc3ccccc3)CN2)cc1,i,6.5%,-0.74
O=C1CC(c2ccc(S(=O)(=O)NCc3ccncc3)cc2)CN1 (stereo not given),i,-2.4%,1.15
O=C(NCCS(=O)CCNC(=O)C(F)(F)F)C(F)(F)F,i,-0.1%,0.31
COc1cc(OC)cc(C(=O)Nn2cc(C(=O)N3CCN(C)CC3)c3ccccc3c2=O)c1,i,0.0%,-0.56
Cc1cc(C(=O)NCc2cccs2)n(-c2ccccc2)n1,i,0.5%,0.21
Cc1c(Cl)cccc1N(CC(=O)O)S(C)(=O)=O,i,5.4%,-0.72
CC(C)(C)c1nnc2sc(SCC(=O)c3cccs3)nn2c1=O,i,-8.1%,0.32
COc1ccc(C2=NOC(C(=O)N3CCN(c4ccccc4OC)CC3)C2)cc1 (stereo not given),i,2.9%,-0.78
Cc1ccc(S(=O)(=O)N2CCC(C(=O)OCC(=O)N3CC(=O)Nc4ccccc43)CC2)cc1,i,-6.7%,0.65
Cc1nc2nc(C)c(CCC(=O)N3CCN(c4ccccn4)CC3)c(C)n2n1,i,-0.8%,-0.66
CCC(CC)C(=O)N1c2ccc(F)cc2CCC1C (stereo not given),i,-5.5%,-0.83
COc1ccc(OCCCC(=O)NC(C)c2ccccc2)cc1 (stereo not given),i,-3.4%,nt
CCC(C(=O)Nc1cc(C)nn1-c1nc(C)cc(C)n1)c1ccccc1 (stereo not given),i,1.0%,-0.09
Cc1cccc(C2CC(c3ccccc3)Nc3ncnn32)c1 (stereo not given),i,-1.6%,1.3
CC(=O)C1C(c2cccc(Oc3ccccc3)c2)NC(=O)NC1(O)C(F)(F)F (stereo not given),i,1.6%,-1.03
O=C(Cn1nnc(-c2ccccc2NC(=O)C2CC2)n1)NC1CCCCC1,i,-0.4%,-0.06
CCN(CC)CCNC(=O)c1c(C)n(-c2ccccc2)c2cc(Br)c(OC)cc12,i,0.8%,nt
Nc1nc2ccc(OC(F)(F)F)cc2s1,i,3.9%,-0.5
O=C(Nc1cccc(F)c1)NC1CC2CCCC(C1)N2C1CC1 (stereo not given),i,4.3%,1.45
